miR-21 reporter: raises the signal of a miR-21 reporter; HeLa miR-21 FLuc reporter, luciferase, 48 h; Potency, µM (series often up to 38.3 µM), for inactives: top-dose reporter change, positive = more light; 340,000 tested, under 10 active; active = well fitted rising curve with a large enough effect; inconclusive = small, poorly fitted or top-dose-only effect; inactive = no such curve, though single readings can be large or run the other way;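 note: % of control where 0% means no effect; miR-21 action dims this reporter so a rising signal means less miR-21 action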
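Luminescence from a firefly luciferase reporter carrying a miR-21 binding site downstream, stably expressed under a CMV promoter in HeLa cells that make miR-21 endogenously, reports miRNA modulation after 48 h compound exposure up to approximately 40uM final.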
Rango-impB inh: Rango-importin beta binding inhibition; Q14974; Rango CFP/YFP FRET sensor + importin beta, 45 min; Potency, µM (highest dose often 92.2 µM), without a hit: at the top dose inhibition of complex formation; 0.031% of 340,000 active; AID 540263; active = rising FRET ratio curve, often small or poorly fitted; inconclusive = mostly compound fluorescence or quenching in the first reads; inactive = flat curves in all reads;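 note: potency is the fitted concentration of half-maximal effect; 0% = DMSO wells and 100% = buffer wells lacking importin beta; nearly all actives have a fitted effect of over 15% in size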
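FRET biosensor Rango (snurportin 1 IBB between N-terminal EYFP and C-terminal Cerulean), 50 nM in PBS/1 mM DTT/0.02% Tween-20/0.1% BSA, preincubated 5 min RT with compound; 0.125 microM importin beta added, 45 min RT, CFP/YFP FRET ratio read.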
Rango release inh: inhibitors of RanGTP-induced Rango-importin beta complex dissociation. O95149+P62826. AID 540253. Biochemical FRET Rango-importin beta, RanGTP-induced dissociation. 0.071% of 340,000 active. Potency, µM (doses to about 46.1 µM), for the others: at the highest dose activity change, negative = inhibition; active means falling FRET ratio curve, often poorly fitted, with flat reads before Ran was added; inconclusive means other falling curves, or compound fluorescence or quenching; inactive means flat or rising ratio curve;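 note: potency is the fitted concentration of half-maximal effect; % of control where 0% means no effect; nearly all actives have a fitted effect of over 45% in size; -100% = wells without RanGTP and RCC1; the record marks most hits as doubtful in a second field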
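Compounds sat 5 min at room temperature with 0.1 uM Rango biosensor plus 0.25 uM importin beta, then FRET pre-read. RanGTP-RCC1 (0.6 uM Ran, 2mM GTP, 0.2 uM RCC1) added for 45 min, and the CFP/YFP post-read measured blocked complex dissociation.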
GLA inh pH 4.5: inhibitors of human alpha-galactosidase A at pH 4.5; P06280; purified enzyme, 4-MU-alpha-Gal fluorescence, pH 4.5; activity change, negative = inhibition, % at 105 µM; 230,000 tested, under 10 active; AID 1467; inconclusive = small, poorly fitted or top-dose-only inhibition, or a rising curve; inactive = flat fitted curve, though single readings scatter; no compound was filed as active;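 note: 0% = full activity with enzyme and -100% = basal without enzyme; dose as in the result columns while the protocol names 77 µM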
Target sequence (P06280 whole entry, looked up): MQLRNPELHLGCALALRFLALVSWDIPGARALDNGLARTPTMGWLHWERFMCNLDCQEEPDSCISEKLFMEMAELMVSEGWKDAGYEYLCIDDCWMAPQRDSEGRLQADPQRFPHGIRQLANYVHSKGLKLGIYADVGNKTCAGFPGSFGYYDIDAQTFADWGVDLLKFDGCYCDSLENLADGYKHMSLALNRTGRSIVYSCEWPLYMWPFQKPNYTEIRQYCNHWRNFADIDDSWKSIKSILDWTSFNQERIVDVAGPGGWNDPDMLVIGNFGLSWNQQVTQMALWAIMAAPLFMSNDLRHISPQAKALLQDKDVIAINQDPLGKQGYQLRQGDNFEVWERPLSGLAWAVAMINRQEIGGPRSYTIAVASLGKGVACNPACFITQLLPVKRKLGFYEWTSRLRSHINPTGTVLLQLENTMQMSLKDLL
Active calls of the source: *; ? = inconclusive; / = not tested or not shown; & = joins results of further samples.

SMILES | miR-21 reporter | Rango-impB inh | Rango release inh | GLA inh pH 4.5
Cn1c(=O)[nH]c(=O)c2c1nc(CN(Cc1ccccc1)Cc1ccccc1)n2CCN1CCOCC1 | -1.0% | 1.3% | 4.1% | 12.1
CCOC(=O)c1c(C)n(-c2ccc(C)cc2)c2c(CC(C)=O)c(Br)c(OC)c(O)c12 | -4.4% | 1.2% | 1.8% | -0.5
COc1ccccc1NS(=O)(=O)c1cccc(C(=O)NNC(=O)C(NC(N)=O)C(C)C)c1 (stereo not given) | -0.4% | 1.0% | -5.3% | 0.2
O=C(NN1C(=O)c2ccccc2NC1c1ccccn1)c1ccc([N+](=O)[O-])cc1 (stereo not given) | -9.3% | -3.2% | 2.3% | -3.1
Cc1[nH]nc(N2CCCCCC2)c1[N+](=O)[O-] | 0.2% | -0.9% | -1.6% | 0.2
Cc1sc2ncnc(OCc3nnc(-c4cccs4)o3)c2c1C | -8.0% | 0.9% | 1.1% | 4.2
O=C(CSc1nnc(-c2cccs2)o1)NCc1ccco1 | 0.3% | -4.8% | ? | 0.3
O=S(=O)(Oc1ccccc1C(=S)N1CCOCC1)c1ccc(Cl)cc1 | 1.3% | 0.7% | -9.8% | /
CCn1c(Cn2nnc(-c3ccccc3)n2)nnc1SCC(=O)Nc1ccc(N(C)C)cc1 | -9.1% | 3.3% | -18.1% | -2.1
O=S(=O)(Cc1ccc(Cl)cc1)c1ncc(CO)n1Cc1ccccc1 | 4.6% | -3.7% | 9.9% | 3.1
CC(=O)c1cccc(N(CC(=O)Nc2ccc(S(=O)(=O)N3CCOCC3)cc2)S(C)(=O)=O)c1 | -3.3% | -1.6% | -9.2% | /
CCn1c(=O)c2c(nc3n2CCCN3c2cccc(C)c2)n(C)c1=O | 2.4% | 1.2% | 9.0% | 7.0
Cc1nn(-c2ccccc2)c(Cl)c1CN(C(=O)CCl)c1ccc(Cl)cc1 | ? | -3.5% | 2.1% | -0.7
O=C(NC(Cc1ccccc1)C(=O)O)OCc1ccccc1 (stereo not given) | -1.9% | -4.1% | 0.9% | 4.4
O=C(CCn1c(=O)oc2ccccc21)N1CCN(C(c2ccccc2)c2ccccc2)CC1 | 18.1% | -2.8% | 0.9% | -9.9
Cc1cccc(CS(=O)(=O)Cc2ccc(C(=O)NCCCN3CCOCC3)o2)c1 | -2.9% | 2.0% | -21.7% | -9.8
COc1ccc(/C=C2\CCOC2=O)cc1 | -0.6%&-1.9% | -2.2% | -15.9% | -2.9&5.1
CCOCc1cc(C)[nH]c(=O)c1C#N | -0.1% | 1.7% | 3.1% | 3.0
Cc1cc2c3c(c1)C1(C(=O)N3C(C)(C)CC2C)C(C#N)=C(N)Oc2cc(O)ccc21 (stereo not given) | 10.5% | 0.7% | -11.3% | 0.5
CC1=C(C(N)=O)C(c2cccs2)n2nc(-c3cccc(Cl)c3)nc2N1 (stereo not given) | -3.0% | 1.6% | 2.3% | 3.3
COc1ccc(NS(=O)(=O)c2ccc(N3CCCC3)c(NC(=S)Nc3cccc(S(=O)(=O)N(C)C)c3)c2)cc1 | -6.0% | / | / | 1.3
O=C(O)c1ccccc1C(=O)Nc1ccc(Oc2ccc3ccccc3c2)cc1 | 18.9% | 6.5% | -27.5% | -5.2
Cc1cc(OCC(=O)Nc2cccc(S(=O)(=O)N3CCCCC3)c2)ccc1Cl | / | -0.4% | 7.8% | /
Cc1oc(-c2ccccc2F)nc1CS(=O)(=O)CC(=O)NCc1ccco1 | -6.4% | -0.2% | -1.0% | 0.0
CC(C)C[C@@H](CNCC(=O)[C@H](C)NC(=O)c1[nH]cnc1C(=O)N[C@H](CN)CC(C)C)NC(=O)c1nc[nH]c1C(=O)N[C@@H](C)C(=O)O | / | -0.5% | -1.2% | /

Some of these compounds in order of number of heavy atoms, descending:
SMILES | miR-21 reporter | Rango-impB inh | Rango release inh | GLA inh pH 4.5
COc1ccccc1NS(=O)(=O)c1cccc(C(=O)NNC(=O)C(NC(N)=O)C(C)C)c1 (stereo not given) | -0.4% | 1.0% | -5.3% | 0.2
Cc1oc(-c2ccccc2F)nc1CS(=O)(=O)CC(=O)NCc1ccco1 | -6.4% | -0.2% | -1.0% | 0.0
Cc1sc2ncnc(OCc3nnc(-c4cccs4)o3)c2c1C | -8.0% | 0.9% | 1.1% | 4.2

(continued)
SMILES | miR-21 reporter | Rango-impB inh | Rango release inh | GLA inh pH 4.5
O=C(CC(=O)Nc1cccc(Cl)c1)N/N=C\c1ccccc1 | -9.5% | 3.8% | -22.4% | -1.6
CCN(CC)S(=O)(=O)c1ccc2oc(SCc3ccc(F)cc3)nc2c1 | 8.5% | 3.6% | 0.7% | 6.2
CCN(CC)c1ccc(/C=N/NC(=O)c2cccc(S(=O)(=O)N3CCOCC3)c2)cc1 | 1.3% | ? | ? | -8.7
Cc1ccc(OCC(=O)N2N=C(c3cccnc3)CC2(O)C(F)(F)F)cc1C (stereo not given) | -4.4% | 0.2% | 5.6% | 1.5
CN(C)CCNC(=O)Cc1ncc(C(F)(F)F)cc1Cl | 1.4% | -7.1% | -1.8% | -11.5
Cc1cc(=O)[nH]c(SCc2cccc3ccccc23)n1 | -7.9% | 0.1% | -0.7% | /
O=C(CNS(=O)(=O)c1ccccc1)OCc1cccc([N+](=O)[O-])c1 | -10.1% | -2.2% | 1.0% | 7.3
CCCn1c(=NC(=O)CS(=O)(=O)c2ccccc2)sc2cc(S(C)(=O)=O)ccc21 | / | -1.5% | -11.9% | /
Cc1cc(C(=O)NCc2ccc3c(c2)OCO3)n(-c2ccccc2)n1 | -2.6% | -1.1% | -3.7% | -8.7
C#CCOCCOCCOCCNc1nc(N2CCN(C(=O)[C@H](CCCCN)n3cc(CC(C)O)nn3)CC2)nc(N2CCN(C(=O)[C@H](Cc3ccc(O)cc3)n3cc(CCO)nn3)CC2)n1 (stereo not given in full) | / | -1.0% | 18.6% | /
O=C(Nc1ccc(F)cc1)C1C(c2ccccc2)C1(Cl)Cl (stereo not given) | 10.1% | ? | 0.5% | -8.5
Cc1ccc(-c2n[nH]c(=O)c3ccccc23)cc1S(=O)(=O)NC(C)(C)C | -13.9% | -0.7% | -4.8% | 6.0
S=c1[nH]nc(-c2ccc3ccccc3n2)n1-c1cc(Cl)cc(Cl)c1 | -14.8% | -1.0% | -22.3% | -3.8
CN1CCc2c(sc3c2C(=O)NC(c2ccco2)N3)C1 (stereo not given) | -9.1% | ? | ? | 28.0
COc1cccc(N=C(N)N)c1 | 3.9% | -1.6% | -10.1% | -4.8
CCCCCCN1C=C/C(=C\C=C(C#N)C#N)c2ccccc21 | 0.9% | -3.6% | 2.8% | -12.0
O=C(Nc1ccccc1Br)c1cc(=O)c2ccccc2o1 | -67.7% | -0.7% | -8.6% | /
CCN(c1ccccc1)S(=O)(=O)c1cc(C(=O)OC(C)C(=O)Nc2ccc3c(c2)OCCO3)ccc1C (stereo not given) | -7.2% | 0.1% | -3.1% | -2.2
CCCCc1ccc(NC=C2C(=O)OC3(CCCCC3)OC2=O)cc1 | -1.1% | -2.3% | -4.5% | 10.9
Cc1ccc(OCC(=O)N2CCC(N3CC(C)CC(C)C3)CC2)cc1 (stereo not given) | -5.9% | -0.7% | -17.8% | /
O=c1c(CN2CCN(Cc3ccccc3)CC2)coc2ccc(Cl)cc12 | -21.5% | -0.6% | 0.5% | 4.4
CSCCC(NC(=O)c1ccco1)C(=O)N(C)CC(=O)Nc1ccccc1Br (stereo not given) | / | -1.4% | -18.7% | /
O=C(CN(C(=O)C1CSC(=O)C1)c1cccc(F)c1)NCc1ccc2c(c1)OCO2 (stereo not given) | 0.1% | 2.4% | 1.2% | /
O=C(COc1ccc2c(c1)OCO2)Nc1nnc(Cc2ccccc2)s1 | -6.2% | -1.7% | -5.5% | /
Oc1ccc(Cl)cc1C=NCCc1ccccc1 | -27.9% | ? | -24.4% | 4.5
(more compounds)
SMILES | miR-21 reporter | Rango-impB inh | Rango release inh | GLA inh pH 4.5
COc1ccc(CCNC(=O)CSc2nc3cc(Cl)ccc3o2)cc1OC | 4.1% | 2.7% | -8.8% | 1.7
NC(=O)C1CCN(c2nc3ccccc3nc2NS(=O)(=O)c2ccc(Br)cc2)CC1 | / | ? | -16.2% | /
O=C(O)c1cc(NCc2ccc3c(c2)OCO3)ccc1N1CCOCC1 | -6.1% | 0.0% | 7.7% | 5.4
CSc1cccc(NC(=S)N2CCCN(Cc3cccc(Cl)c3)C2)c1 | 8.1% | 1.3% | -1.8% | -8.5
Cc1noc(C)c1S(=O)(=O)N(C)C[C@H]1Oc2c(NC(=O)Nc3ccc(C(F)(F)F)cc3)cccc2C(=O)N([C@H](C)CO)C[C@@H]1C | / | 2.2% | -13.0% | /
CC(C)c1ccc(OCC(=O)Nc2ccncc2)cc1 | 1.3% | -2.9% | 1.1% | /
CCOC(=O)CSc1nnc(CSc2nc3sc4c(c3c(=O)[nH]2)CCCC4)n1-c1ccccc1 | -1.0% | 0.7% | -4.4% | -5.5
COc1cccc(CN2CCC(Oc3ccc(C(=O)NCc4ccccn4)cc3)CC2)c1O | 7.4% | 0.4% | 1.5% | /
c1ccc2oc(-c3ccn[nH]3)cc2c1 | -58.6% | 0.1% | 6.0% | 11.0
Fc1ccccc1/C=N/n1c(C2CCCCC2)n[nH]c1=S | -8.5% | -1.3% | 1.7% | /
CC(=O)c1ccc(NC(=O)C2CC(c3ccc(F)cc3)=NO2)cc1 (stereo not given) | -10.1% | -1.6% | 16.5% | 8.2
CC[C@H](C)C(C(=O)N1CCN(C(=O)OC(C)(C)C)CC1)n1cc(C(Cc2ccc(O)cc2)NC(=O)OC(C)(C)C)nn1 (stereo not given in full) | 9.7% | -0.9% | -3.7% | -2.5
COc1ccc(Cl)cc1NC(=O)CCS(=O)(=O)c1ccc(C)cc1 | 8.5% | 4.3% | 18.6% | /
CC(Oc1ccc(Cl)cc1C(N)=O)C(=O)N1CCc2ccccc21 (stereo not given) | / | ? | 17.3% | /
CC(C)CC(c1nnnn1C1CCCCC1)N1CCN(C(=O)c2ccco2)CC1 (stereo not given) | 2.7% | 0.9% | 4.1% | /
C[C@H](CO)N1C[C@H](C)[C@@H](CN(C)S(=O)(=O)c2cccs2)Oc2ccc(NC(=O)CCC(F)(F)F)cc2C1=O | / | -0.7% | 16.4% | /
NC(=O)c1ccccc1OCC(=O)N1CCCc2ccccc21 | -14.4% | -1.1% | -15.1% | /
CCOc1ccc(NC2=NCCC(=O)N2Cc2cccs2)cc1 | 0.2% | -1.4% | -4.8% | -5.9
CCOc1ccc(Cc2nc(N)nc(N)n2)cc1 | -12.6% | 0.8% | -5.1% | 0.1
CN1C(=O)C(CC(=O)Nc2ccc(Cl)cc2)N(Cc2ccco2)C1=S (stereo not given) | -2.4% | 4.0% | ? | -10.3
CCCCc1cc(=O)oc2c(C)c(OCC(=O)N3CCCC3)ccc12 | -17.3% | 3.2% | -0.7% | /
c1ccc(Nc2nc(NCc3ccco3)c3ccccc3n2)cc1 | ? | 1.1% | -2.8% | -3.0
NNC(=O)CC1NCCN(Cc2ccccc2)C1=O (stereo not given) | 0.9% | -0.2% | 2.1% | /
O=C(O)C1C2C=CC3(O2)C1C(=O)N1c2ccccc2C2OCCC2C13 (stereo not given) | -0.9% | 4.0% | 12.0% | 8.0
CC(=O)c1c(C)[nH]c(C(=O)OCC(=O)NNC(=O)c2ccc([N+](=O)[O-])cc2)c1C | / | -4.4% | -2.4% | /
Cc1ccc(NC(=O)C2=C(C(=O)O)CCCC2)cc1F | -8.8% | 5.0% | 2.8% | /
COc1cc(OC)c(OC)cc1/C=N/NC(=O)c1ccc2nc[nH]c2c1 | 9.6% | -0.7% | 3.2% | -4.1
COC(=O)CNC(=O)C1CCN(c2nc(C)cc(C)n2)CC1 | -5.2% | -0.4% | 3.4% | 10.1

Compounds above that have a tert-butyl group (two):
SMILES | miR-21 reporter | Rango-impB inh | Rango release inh | GLA inh pH 4.5
Cc1ccc(-c2n[nH]c(=O)c3ccccc23)cc1S(=O)(=O)NC(C)(C)C | -13.9% | -0.7% | -4.8% | 6.0
CC[C@H](C)C(C(=O)N1CCN(C(=O)OC(C)(C)C)CC1)n1cc(C(Cc2ccc(O)cc2)NC(=O)OC(C)(C)C)nn1 (stereo not given in full) | 9.7% | -0.9% | -3.7% | -2.5

Compound activity from PubChem BioAssay.

Only part of the results is shown. The share of hits here may be higher or lower than overall.
